PINK1 modulator = changes PINK1 expression; Potency, µM (series often up to 76.6 µM), without a hit: at the highest dose activation (PINK1 increase), hits mostly activators; hit rate 0.2% among 410,000; PINK1 immunofluorescence, high-content cytometry, 24 h; active = well fitted activation curve with a large enough effect; inconclusive = small, poorly fitted or top-dose-only effect; inactive = flat fitted curve, though single readings scatter; cell line not stated here;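 further: potency means the concentration at half of the fitted maximal effect; % of control where 0% means no effect; nearly all actives have a fitted effect of over 65% in size; a mitochondrial uncoupler was the plate control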
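PINK1 protein level read as immunofluorescence by microplate cytometer in a fixed, stained stable cell line after 24 h exposure to five compound concentrations, with CCCP as control.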
TRPML1 blocker = blocks the human TRPML1 channel; Q9GZU1; TRPML1-inducible cells, Ca2+ dye fluorescence, FDSS; hits give low values; inhibition of EC80 agonist-evoked calcium signal; activity change, negative = inhibition, % (concentration not given with the values); hit rate 0.02% among 390,000; in the data active means activity change below about -50%; inconclusive means about -30% to -50%; inactive means above about -30%;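 further: stimulus is agonist 54-4 at its EC80 concentration; on the % scale 0 is the no-effect control and ±100 the full control effect; compound concentration not given in the record; the text of the record puts the active cut at -80%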
Target sequence (Q9GZU1 whole entry, looked up): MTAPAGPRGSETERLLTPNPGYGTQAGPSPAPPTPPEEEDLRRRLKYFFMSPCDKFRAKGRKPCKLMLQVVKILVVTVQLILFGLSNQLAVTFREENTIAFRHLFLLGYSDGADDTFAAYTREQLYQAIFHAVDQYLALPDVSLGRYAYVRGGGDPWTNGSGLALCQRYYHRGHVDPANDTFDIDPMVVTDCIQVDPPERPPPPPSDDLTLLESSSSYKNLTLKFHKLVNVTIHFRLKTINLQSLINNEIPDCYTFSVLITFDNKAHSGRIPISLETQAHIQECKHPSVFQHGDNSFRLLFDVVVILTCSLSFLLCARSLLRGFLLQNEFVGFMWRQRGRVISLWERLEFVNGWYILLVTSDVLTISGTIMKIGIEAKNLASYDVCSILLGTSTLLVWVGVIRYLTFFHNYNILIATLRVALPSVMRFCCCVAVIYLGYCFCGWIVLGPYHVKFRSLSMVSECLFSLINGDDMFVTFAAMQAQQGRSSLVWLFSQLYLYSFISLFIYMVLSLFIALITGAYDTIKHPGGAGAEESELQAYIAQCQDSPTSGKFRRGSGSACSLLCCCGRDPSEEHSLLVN
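TRPML1-DL cells, Tet-induced overnight (~16 h, 37 °C) at 1,500 cells/well, were loaded with Ca8 no-wash dye plus quencher for 45-90 min at room temperature. Compounds were pinned during FDSS kinetic reading; agonist 54-4 at EC80 (4 uM final) then added.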
D2 PAM = positive allosteric modulators of human D2 dopamine receptor; hit rate 0.23% among 360,000; potentiation, % (concentration not given with the values); DiscoveRx D2 beta-arrestin cells, luminescence, 90 min; 100% = 57 uM dopamine signal; AID 624464; active = potentiation of 50% or more; inconclusive = 30% to 50%; inactive = 30% or less;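 further: compound concentration not given in the record; tested on top of an EC20 dose of dopamine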
Target sequence (P14416 whole entry, looked up): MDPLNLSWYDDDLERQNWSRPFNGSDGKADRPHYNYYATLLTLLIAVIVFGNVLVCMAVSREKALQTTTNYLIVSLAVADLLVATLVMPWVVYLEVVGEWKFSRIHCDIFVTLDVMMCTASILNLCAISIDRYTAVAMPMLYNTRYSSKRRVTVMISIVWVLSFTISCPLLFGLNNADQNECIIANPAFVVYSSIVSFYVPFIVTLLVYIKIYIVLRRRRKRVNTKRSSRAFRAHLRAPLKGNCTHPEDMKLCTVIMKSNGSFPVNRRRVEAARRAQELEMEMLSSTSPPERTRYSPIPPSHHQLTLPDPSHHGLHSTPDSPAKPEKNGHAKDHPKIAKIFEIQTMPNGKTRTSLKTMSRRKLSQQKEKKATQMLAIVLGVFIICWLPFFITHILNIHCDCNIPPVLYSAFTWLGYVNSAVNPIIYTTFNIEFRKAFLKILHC
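PathHunter beta-arrestin assay in DiscoveRx D2 cells. Compounds were added with an EC20 of dopamine (50 nM final) for 90 min at 37 deg C. Luminescence was read 1 h after detection reagent, with 57 uM dopamine as the EC100 control.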
TRPML1 agonist = agonists of human TRPML1 channel; Q9GZU1; TRPML1-expressing cells, Ca2+ dye fluorescence, FDSS; host cell line not named in the record; reference of the full effect not given here; activation, % (no concentration beside the values); hit rate 0.12% among 410,000; AID 624414; in the data active = activation above about 50%; inconclusive = about 30% to 50%; inactive = below about 30%; further: 0% is about no effect; the text of the record puts the active cut at 80%
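Cells: TRPML1-DL, 1X Tet inducer, ~16 h at 37 degrees C/5% CO2. Dye: ABD Ca8 no-wash + quencher, 45-90 min RT. Read: 10 s baseline, compound add, 110 s agonist phase; 54-4 EC80 (4uM final), 110 s antagonist phase.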
Six1-Eya2 blk = inhibitors of human Six1/Eya2 interaction; Q15475+O00167; AlphaScreen GST-Six1/His-Eya2 binding, biochemical; hits give low values; control for the full effect not named in the record; activity change, % (no concentration beside the values); hit rate 0.56% among 360,000; AID 651725; in the data active = activity change below about -65%; inconclusive = about -30% to -65%; inactive = above about -30%; further: on the % scale 0 is the no-effect control and ±100 the full control effect; compound concentration not given in the record
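Homogeneous AlphaScreen proximity assay pairing GST-Six1 with His-tagged Eya2 (added as 5X mix: 250 nM and 500 nM) in 50 mM Tris pH 8.0, 300 mM NaCl, 1 mM TCEP. Glutathione donor and nickel acceptor beads; 1 h, 37 °C, dark.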
D2 agonist = human D2 receptor agonism in beta-arrestin assay | DiscoveRx PathHunter D2 beta-arrestin, luminescence, 90 min; 100% = 57 uM dopamine signal | activation, % (concentration not given with the values) | hit rate 0.084% among 360,000 | AID 624465; in the data active = activation above about 40%; inconclusive = about 15% to 40%; inactive = below about 15%; further: compound concentration not given in the record; the text of the record calls up to 30% inactive
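Agonist mode: compounds alone added to overnight-plated D2 PathHunter cells for 90 min at 37 C, with 57 uM final dopamine (EC100) defining full response. Beta-arrestin recruitment detected by chemiluminescent reagent, read after 1 h at ambient temperature.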
* = called active by the depositor; ? = inconclusive; . = not tested or not shown; & = joins results of further samples; [ ] = remark or other dose.

SMILES	PINK1 modulator	TRPML1 blocker	D2 PAM	TRPML1 agonist	Six1-Eya2 blk	D2 agonist
CC1CCN(Cc2c(C(=O)N/N=C/c3cccc(Cl)c3)nnn2-c2nonc2N)CC1	8.4%	2	-13	1.0	-2	1.0
COC(=O)c1ccc2cn[nH]c2c1	0.9%	-1	-6	-0.1	-3	-9.5
CCCc1c(C(=O)Nc2ccc(F)cc2)cnn1-c1ccccc1	0.1%	-1	-8	0.6	1	0.7
CCCn1c(SCC(=O)Nc2cccc(C(=O)OCC)c2)nnc1-c1ccoc1C	0.0%	-28	9	-0.1	-26	2.7
CCCSc1nc2sc3c(c2c(=O)n1-c1ccc(C)c(Cl)c1)CCN(C(C)=O)C3	4.8%	29	.	0.3	.	.
O=C(NCCc1c[nH]c2ccccc12)OCCSS(=O)(=O)O	3.5%	8	-3	-0.1	-10	-1.4
Cc1ccc(NC(=O)COc2ccccc2[N+](=O)[O-])nc1	5.7%	1	-1	-0.7	-2	3.2
Cc1nc2c(cc1NC(=O)C(C)(C)C)nc(C)n2Cc1ccccc1	1.1%	18	-2	0.4	5	-4.7
Nc1nc(Cl)nc2c1ncn2[C@H]1C[C@H](O)[C@@H](CO)O1	0.5%&-1.6%	-2	-1	0.5	2	-3.7
CCN(C(=O)CSc1ccccn1)C1CCCCC1	0.4%	-4	-3	2.0	9	6.4
COc1cccc(NC(=S)N(CCCN2CCOCC2)C(C)c2cc3ccccc3o2)c1 (configuration not stated)	-0.8%	-7	-21	-0.3	-6	-1.6
CN(CC(=O)Nc1cccc(F)c1)CC(=O)Nc1cccc([N+](=O)[O-])c1	-0.6%	-10	-5	-0.3	0	-0.5
C=CCN(C(=O)CCC(=O)Nc1cc(C)on1)C(C(=O)NC1CCCC1)c1ccc(OC)c(OC)c1 (configuration not stated)	5.8%	-13	-18	-1.1	3	-4.3
CCOc1ccc(-c2c(C(=O)N/N=C/c3ccccc3)nnn2-c2nonc2N)cc1	7.5%	4	-7	0.8	3	0.5
O=C(COC(=O)Cc1c(F)cccc1Cl)NC1CCS(=O)(=O)C1 (configuration not stated)	0.9%	5	-18	0.3	5	-3.7
CC(C)Cn1c(C2CC(=O)N(c3ccccc3Cl)C2)nc2ccccc21 (configuration not stated)	-0.2%	-10	.	-0.8	.	.
C/C(=N\NC(=O)c1c(Cl)c(C)nn1C)c1ccc(NC(=O)C2CCC2)cc1	2.4%	-15	-6	1.1	3	2.9
COC(=O)c1ccc(C)c(NC(=O)c2nn(C)c(=O)c3ccccc23)c1	2.8%[38.3 µM]	1	1	1.0	0	-1.2
O=C1OCCN1C(=O)[C@H]1[C@H](c2ccccc2)C(c2ccc(F)cc2)=NN1c1ccccc1	2.0%	-7	3	0.1	10	-1.2
COc1ccc(S(=O)(=O)N2CCCN(CC(=O)Nc3ccc(OC)cc3OC)CC2)cc1	-0.4%	-6	.	-0.7	.	.
Cc1cccc(-n2ncc3c(NCc4ccco4)ncnc32)c1	13%	21	11	2.2	-17	-1.8
Cc1cc2oc(=O)sc2cc1NS(=O)(=O)c1ccccc1	-1.1%	-10	3	-0.5	2	-1.3
CCc1ccc(NC(=O)c2ccc3c(c2)c(C)c(C)n3Cc2ccccc2)cc1	3.9%	30	.	0.7	.	.
O=C(NCc1cccc(Cl)c1)c1cc2c(s1)-c1ccccc1OC2	0.6%	-13	.	15	.	.
C[C@H]1CN([C@@H](C)CO)C(=O)CCCn2nncc2CO[C@H]1CN(C)C(=O)Nc1ccc(N2CCCCC2)cc1	2.3%	.	.	.	1	-1.4
CCOC(=O)c1c(C)oc2nc(C)nc(NCc3ccccc3OCC)c12	0.6%	28	.	2.5	.	.
O=C(CCCCC(=O)NCCCc1ccccc1)NCCCc1ccccc1	-0.7%	.	-2	.	-3	1.0
CC(=O)c1cccn1S(=O)(=O)c1ccccc1	0.0%	.	8	.	4	-4.8
O=C(NNC(=O)C12CC3CC(CC(C3)C1)C2)c1ccncc1	-1.2%	3	-1	-0.3	1	-1.9
COC(=O)C1CCN(C(=O)c2ccc3nc(-c4cccc(OC)c4)oc3c2)CC1	-0.9%	-16	-5	1.1	0	0.7

(more compounds)
SMILES	PINK1 modulator	TRPML1 blocker	D2 PAM	TRPML1 agonist	Six1-Eya2 blk	D2 agonist
CC(C)Cn1c(=O)c2sccc2n2c(CCCC(=O)NC3CCN(Cc4ccccc4)CC3)nnc12	2.0%	11	-6	3.4	3	-1.1
CCOC(=O)N1CCN(CC(=O)N2CCC(C(N)=O)CC2)CC1	0.9%	-8	-2	0.0	3	-0.8
COC(=O)Cc1c(OC)ccn(CCc2c[nH]c3ccccc23)c1=O	0.2%	0	1	0.5	-2	-2.4
CCC(C(=O)N1CCN(S(C)(=O)=O)CC1)c1ccccc1 (configuration not stated)	-4.2%[38.3 µM]	13	-7	1.5	2	-1.7
CCOC(=O)C1=C(COC(=O)COc2ccc(C(=O)CC)cc2)NC(=O)NC1C (configuration not stated)	2.4%	33	?	0.8	4	1.6
CCCOc1ccc(C(=O)NNC(=S)NC(=O)c2ccco2)cc1	-1.0%	1	-13	17	-12	-9.0
Cc1ccc(NC(=O)CN(C)C(=O)COC(=O)c2ccc(NC(=O)CC#N)cc2)cc1	-2.9%	7	-4	0.2	-1	0.5
COc1ccc(C(NC(=O)C(C)C)c2c(O)ccc3ccccc23)cc1 (configuration not stated)	4.3%	0	-7	-0.8	-1	-8.2
COc1ccc(C2C(CC(=O)O)=C(Nc3ccccc3)C(=O)N2c2ccccc2)cc1 (configuration not stated)	3.4%	16	-1	-0.6	-10	-2.3
CC1=C(C(=O)Nc2cccc(F)c2)C(c2ccsc2)C2=C(CC(C)(C)CC2=O)N1 (configuration not stated)	5.1%	20	-13	2.9	0	-0.8
CCCC(C(=O)NCC1CCCO1)N(Cc1ccco1)C(=O)CNS(=O)(=O)c1ccccc1 (configuration not stated)	-1.4%	-14	-8	0.5	4	-1.2
COc1ccc(NC(=O)c2ccc[n+]([O-])c2)cc1	-0.1%	-3	-2	0.5	2	0.7
O=C(OCc1nc2ccccc2s1)c1cnccn1	-2.2%	41	2	-0.6	1	-2.0
Cn1c(N)c(C(=O)COC(=O)c2cnc(Cl)c(Cl)c2)c(=O)n(C)c1=O	8.4%	-11	1	-0.5	-92*	0.4
O=C(CCn1nnc2ccccc21)Nc1nnc(COc2ccccc2F)s1	-0.2%	5	-1	-0.8	-6	0.3
CN(C)C(CNC(=O)CNC(=O)c1ccc(Br)cc1)c1ccccc1 (configuration not stated)	-0.7%	-10	-14	0.1	6	-0.5
COC(=O)c1c(C)oc2ccc(N(C(=O)c3ccncc3)S(=O)(=O)c3ccc(OC)cc3)cc12	10%	-25	.	0.6	.	.
Cc1[nH]n(C(N)=S)c(=O)c1N=Nc1ccc(S(=O)(=O)N2CCCC2)cc1	-0.8%	5	-26	0.0	-3	-7.6
COc1ccc(-n2c(O)c(C=NC3CC3)c(=O)[nH]c2=O)cc1	-0.4%	13	12	-1.2	19	-1.0
CC(Oc1ccccc1)C(=O)N(CCC1=CCCCC1)c1c(N)n(Cc2ccccc2)c(=O)[nH]c1=O (configuration not stated)	21%	15	-11	0.3	5	-5.0
CC(C)OC(=O)c1c(-c2ccc(C(C)C)cc2)csc1NC(=O)C1CCCO1 (configuration not stated)	6.0%	-15	-27	2.5	-1	-1.9
Cc1cccc(NC(=O)CSc2nnc(-c3cccs3)o2)c1	2.9%	-4	.	-0.6	.	.
CC(=O)OC1CCC2(C)C3CCC4(C)C(C(C)=O)CCC4C3CC3OC32C1 (configuration not stated)	-3.4%	31	-3	0.7	2	-1.5
Cc1ccc(S(=O)(=O)NC(=O)N2CCCN(Cc3ccc(F)cc3)CC2)cc1	-1.5%	-5	-13	0.0	0	-5.2
Cc1cc(N/N=C/c2c(O)ccc3ccccc23)nc(-c2ccccc2O)n1	45µM*	-13	-3	0.8	-2	1.4
CCc1nc2ccc(C(=O)N3CCN(S(=O)(=O)CC)CC3)cn2c1N(C)CCC(C)C	2.6%	.	-6	-0.8	4	-3.2
COc1cc(C2c3c(-c4c(C)cc(C)cc4O)n[nH]c3C(=O)N2Cc2ccco2)cc(OC)c1OC (configuration not stated)	5.5%	-15	.	1.4	.	.
COc1ccc(/C=N/NC(=O)c2c(C)nc3ccc(Cl)cn23)cc1OC	8.0%	-2	1	0.0	2	8.5
CC(=O)OCC1CCCC2=C(C)C(=O)CCC21COC(C)=O (configuration not stated)	2.1%	-13	-10	0.3	3	-0.1
O=c1cc(CN2CCOCC2)c2cc(Cl)c(O)cc2o1	1.3%	7	-5	0.3	3	1.9

(cont.)
SMILES	PINK1 modulator	TRPML1 blocker	D2 PAM	TRPML1 agonist	Six1-Eya2 blk	D2 agonist
c1ccc(-n2nnnc2Oc2cccc3cccnc23)cc1	8.4%[38.3 µM]	14	-10	-0.5	-9	-2.2
O=S1(=O)c2ccccc2N(Cc2ccccc2F)c2ccccc21	0.4%	22	.	1.1	.	.
O=C(CC1SC2=NCCN2C1=O)Nc1ccc(Br)cc1 (configuration not stated)	10%[38.3 µM]	-2	7	2.3	4	-1.5
CCCOc1ccc(C(CC(=O)O)NC(=O)c2sc3ccccc3c2Cl)cc1 (configuration not stated)	-0.4%	-2	-6	0.5	-1	6.2
O=C(NC1CC1)C1CCN(C2CCN(C(=O)CC3=CCCCC3)CC2)CC1	-1.4%	-11	-3	0.1	-16	-2.9
O=C1OC(c2ccccc2)Cc2cc(C(=O)N3CCN(c4ccc(F)cc4)CC3)ccc21 (configuration not stated)	?	37	13	-0.3	-11	-4.5
CC(NC(=O)c1cc(S(=O)(=O)N2CCOCC2)cn1C)c1ccccc1 (configuration not stated)	3.7%	-14	0	-0.3	5	-4.2
Cc1cccn2c(=O)c(C=O)c(Nc3ccccc3)nc12	0.4%	23	3	-0.6	-8	0.2
CCS(=O)(=O)n1nc(-c2ccco2)nc1SC	-1.3%	-2	11	1.1	-1	0.6
CC(=O)Nc1cc(-c2cccc(C(=O)NCCN(C)C)c2)cn2c(-c3ccc(S(C)(=O)=O)cc3)cnc12	-0.9%	.	-6	-0.6	1	-4.5
COC(=O)c1ccc(CSc2ccc3nnc(-c4ccc(F)cc4)n3n2)o1	1.1%	-5	-6	2.2	-9	-9.9

Arranged by molecular weight (smallest number first): three of the compounds above.
SMILES	PINK1 modulator	TRPML1 blocker	D2 PAM	TRPML1 agonist	Six1-Eya2 blk	D2 agonist
O=C(NC1CC1)C1CCN(C2CCN(C(=O)CC3=CCCCC3)CC2)CC1	-1.4%	-11	-3	0.1	-16	-2.9
COC(=O)c1ccc(CSc2ccc3nnc(-c4ccc(F)cc4)n3n2)o1	1.1%	-5	-6	2.2	-9	-9.9
O=C1OC(c2ccccc2)Cc2cc(C(=O)N3CCN(c4ccc(F)cc4)CC3)ccc21 (configuration not stated)	?	37	13	-0.3	-11	-4.5

Screens from PubChem.
